Vaccinia inh – blocks a specific stage of Vaccinia orthopoxvirus infection. activity change (mCherry), % (no concentration beside the values). actives 0.01% (n = 89,000). Vaccinia-infected cells, mCherry/Venus stage reporter fluorescence; stronger effect = lower value; some inactives read as strong as hits;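 active = mCherry past -33% and 40 or more points under the early reporter, replicates agreeing; inconclusive = past -33% without that gap or agreement; tested in A549 cells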;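 note: scaled between vehicle wells and reference inhibitor wells; 23 nL library stock went into each well; one replicate is shown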
Vaccinia inh Venus – also measured in Vaccinia inh; calls as there; activity change (Venus), %; measured here: Venus reporter, other viral stage;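 negative = less Venus signal; first of two replicates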
Starred values were filed as active, the others as inactive; u = inconclusive; x = not tested or not shown; & = joins results of further samples. Some of the compounds tested (hit frequency here may not be typical).

SMILES	Vaccinia inh	Vaccinia inh Venus
COc1cccc(S(=O)(=O)N2C[C@@H](O)COC[C@H]3O[C@@H](CC(=O)N4CCOCC4)CC[C@@H]32)c1	9	15
COc1ccc(NC(=O)N2C[C@H](O)COC[C@H]3O[C@@H](CC(=O)N4CCCCC4)CC[C@@H]32)cc1	23	11
O=C(N1CCCCC1)[C@]1(Cc2ccccc2)N=C(c2ccc(OCCCO)cc2)O[C@@H]1c1ccccc1	-19	-7
COCC(=O)Nc1ccc2c(c1)C(=O)N(C)C[C@@H](OC)[C@H](C)CN(C(=O)CC1CC1)[C@H](C)CO2	7	6
CO[C@@H]1CC[C@@H]2CCOc3ccc(C#N)cc3C(=O)N(C)[C@H](C)C(=O)N(C)C[C@H]1O2	16	11
Cc1ccc(S(=O)(=O)Nc2cccc3c2O[C@@H](CN(C)C(=O)Nc2ccc(F)cc2)[C@@H](C)CN([C@H](C)CO)C3=O)cc1	-23	-13
COc1ccc(S(=O)(=O)N(C)C[C@@H]2OCCCC[C@H](C)Oc3ccc(NS(=O)(=O)c4ccc(F)cc4)cc3C(=O)N([C@@H](C)CO)C[C@H]2C)cc1	-19	-11
C[C@H](CO)N1C[C@H](C)[C@H](CN(C)C)Oc2cc(-c3ccc(F)cc3)ccc2S1(=O)=O	-5	-5
CO[C@@H](CN(C)C(=O)c1ccccc1F)[C@H](C)CN([C@H](C)CO)S(=O)(=O)c1ccc(C)cc1	2	6
O=C(C1CCCCC1)N1CC2(C1)[C@H](c1ccccc1)[C@H](CO)N2Cc1ccccc1F	-31	-21

Ordered by SMILES length (high to low): some entries from above.
SMILES	Vaccinia inh	Vaccinia inh Venus
COc1ccc(S(=O)(=O)N(C)C[C@@H]2OCCCC[C@H](C)Oc3ccc(NS(=O)(=O)c4ccc(F)cc4)cc3C(=O)N([C@@H](C)CO)C[C@H]2C)cc1	-19	-11
Cc1ccc(S(=O)(=O)Nc2cccc3c2O[C@@H](CN(C)C(=O)Nc2ccc(F)cc2)[C@@H](C)CN([C@H](C)CO)C3=O)cc1	-23	-13
COCC(=O)Nc1ccc2c(c1)C(=O)N(C)C[C@@H](OC)[C@H](C)CN(C(=O)CC1CC1)[C@H](C)CO2	7	6
O=C(N1CCCCC1)[C@]1(Cc2ccccc2)N=C(c2ccc(OCCCO)cc2)O[C@@H]1c1ccccc1	-19	-7

Next structures follow.
SMILES	Vaccinia inh	Vaccinia inh Venus
CCCNC(=O)N1C[C@@H](C)[C@@H](OC)CN(C)C(=O)c2ccc(NC(C)=O)cc2OC[C@H]1C	-7	6
CCC(=O)N1C[C@@H](O)COC[C@H]2O[C@H](CC(=O)NCc3ccccc3Cl)CC[C@@H]21	u	x
C[C@@H]1CN([C@H](C)CO)C(=O)c2cc(NS(=O)(=O)c3cccs3)ccc2O[C@H]1CN(C)S(=O)(=O)c1ccc(Cl)cc1	-2	-1
C/C=C/c1ccc2c(c1)O[C@H](CN(C)C(=O)Nc1cc(F)ccc1F)[C@H](C)CN([C@@H](C)CO)S2(=O)=O	-29	-18
CC=Cc1ccc2n(c1=O)C[C@H]1[C@H](CO)[C@@H](C(=O)NCc3ccc(F)cc3)[C@@H]2N1CC (mixture of isomers)	7	8
C[C@@H]1CCCCO[C@H](CN(C)Cc2ccncc2)[C@H](C)CN([C@@H](C)CO)C(=O)c2cc(NC(=O)c3ccncc3)ccc2O1	34	7
NCC[C@H]1CC[C@H](NC(=O)Cc2ccncc2)[C@@H](CO)O1	3	1
C[C@H]1CCCCO[C@H](CN(C)C(=O)NC2CCCCC2)[C@@H](C)CN([C@@H](C)CO)C(=O)c2cc(NC(=O)Nc3ccc(C(F)(F)F)cc3)ccc2O1	-20	-11
CCS(=O)(=O)NCC[C@H]1CC[C@H](NC(=O)C2CCC2)[C@H](CO)O1	0	4
COc1ccc(NC(=O)Nc2cccc3c2O[C@@H](CN(C)C(=O)Nc2ccccc2)[C@@H](C)CN([C@H](C)CO)C3=O)cc1	-1	1
Cc1noc(C)c1NC(=O)Nc1ccc2c(c1)C(=O)N(C)[C@H]1CC[C@H](CC(=O)N[C@H]3CCN(Cc4ccccc4)C3)O[C@H]1CO2	-2	5
C[C@H](CO)N1C[C@H](C)[C@H](CN(C)C(=O)Nc2ccc(F)cc2)Oc2ccc(NS(=O)(=O)c3ccccc3)cc2C1=O	23	14
C[C@H](CO)N1C[C@H](C)[C@@H](CN(C)S(=O)(=O)c2ccc(Cl)cc2)OCCCC[C@H](C)Oc2ccc(NC(=O)Nc3ccc4c(c3)OCO4)cc2C1=O	4	14
CCCNC(=O)C[C@H]1CC[C@H]2[C@H](COc3ccc(NC(=O)c4cccc(F)c4)cc3C(=O)N2C)O1	4	3
C[C@@H]1CN([C@@H](C)CO)C(=O)CCCn2nncc2CO[C@@H]1CN(C)S(C)(=O)=O	12	7
C[C@H](CO)N1C[C@H](C)[C@H](CN(C)C(=O)Oc2ccccc2)OCc2ccccc2-c2ccccc2C1=O	5	-9
O=C(C[C@H]1C[C@@H]2c3cc(NC(=O)C4CCC4)ccc3O[C@@H]2[C@H](CO)O1)NCc1cccnc1	20	16
O=C(C[C@H]1C[C@@H]2c3cc(NC(=O)c4ccc5c(c4)OCO5)ccc3O[C@@H]2[C@@H](CO)O1)NCc1cccnc1	0	14
C/C=C/c1ccc2c(c1)O[C@@H](CN(C)C(=O)C1CCOCC1)[C@@H](C)CN([C@H](C)CO)S2(=O)=O	12	9
Cc1ccc(S(=O)(=O)N2CC[C@H]3[C@H](CO)Nc4ccc(-c5ccccc5F)cc4[C@H]32)cc1	-9	-5

Look-ups from the results shown:
Under Vaccinia inh, `COc1ccc(S(=O)(=O)N(C)C[C@@H]2OCCCC[C@H](C)Oc3ccc(NS(=O)(=O)c4ccc(F)cc4)cc3C(=O)N([C@@H](C)CO)C[C@H]2C)cc1` has the entry -19
Under Vaccinia inh Venus, `C/C=C/c1ccc2c(c1)O[C@H](CN(C)C(=O)Nc1cc(F)ccc1F)[C@H](C)CN([C@@H](C)CO)S2(=O)=O` has the entry -18
Under Vaccinia inh Venus, `CCCNC(=O)C[C@H]1CC[C@H]2[C@H](COc3ccc(NC(=O)c4cccc(F)c4)cc3C(=O)N2C)O1` has the entry 3

(continued)
SMILES	Vaccinia inh	Vaccinia inh Venus
O=C(O)C[C@@H]1CC[C@@H](NC(=O)c2ccncc2)[C@H](CO)O1	12	6
CN1CCN(C(=O)C[C@H]2C[C@@H]3c4cc(NC(=O)NC5CCCCC5)ccc4O[C@@H]3[C@H](CO)O2)CC1	11	10
C[C@H]1CN([C@@H](C)CO)S(=O)(=O)c2ccc(-c3cncnc3)cc2O[C@@H]1CN(C)C(=O)C1CCCCC1	11	6
C[C@@H]1CN([C@H](C)CO)C(=O)c2cc(NC(=O)Cn3cnnn3)ccc2O[C@H]1CN(C)C(=O)Nc1cccc2ccccc12	17	4
CNC[C@@H]1Oc2ccc(NS(=O)(=O)c3cccs3)cc2C(=O)N([C@H](C)CO)C[C@@H]1C	16	9
C[C@@H]1CN([C@H](C)CO)S(=O)(=O)c2ccc(-c3ccccc3)cc2O[C@H]1CN(C)C(=O)CC1CC1	-3	-10
CC(C)NC(=O)N1CC(=O)N2[C@H](C1)[C@@H](c1ccc(/C=C/c3ccccc3)cc1)[C@@H]2CO	u	x
C[C@@H]1CCCCO[C@@H](CN(C)C(=O)C2CCCCC2)[C@@H](C)CN([C@@H](C)CO)C(=O)c2cc(NS(=O)(=O)c3ccc(Cl)cc3)ccc2O1	u	x
CC(C)NC(=O)N(C)C[C@@H]1Oc2c(cccc2N(C)C)C(=O)N([C@H](C)CO)C[C@H]1C	8	5
COC(=O)[C@H]1[C@H](CO)[C@H]2Cn3c(ccc(C4=CCCCC4)c3=O)[C@@H]1N2Cc1ccccn1	8	1

Fetched one by one from the list above (2):
SMILES	Vaccinia inh	Vaccinia inh Venus
CCC(=O)N1C[C@@H](O)COC[C@H]2O[C@H](CC(=O)NCc3ccccc3Cl)CC[C@@H]21	u	x
C/C=C/c1ccc2c(c1)O[C@@H](CN(C)C(=O)C1CCOCC1)[C@@H](C)CN([C@H](C)CO)S2(=O)=O	12	9

Going on with the list:
SMILES	Vaccinia inh	Vaccinia inh Venus
C[C@H]1CN([C@@H](C)CO)C(=O)c2cc(C#CC3CCCCC3)cnc2O[C@H]1CN(C)S(C)(=O)=O	9	3
COc1ccccc1C(=O)Nc1ccc2c(c1)C(=O)N(C)C[C@H](OC)[C@@H](C)CN(C)[C@H](C)CO2	-16	-5
C/C=C/c1ccc2c(c1)O[C@H](CN(C)C(C)=O)[C@H](C)CN([C@H](C)CO)S2(=O)=O	17	7
CO[C@H]1CN(C)C(=O)c2cc(NC(=O)CC(F)(F)F)ccc2OC[C@@H](C)NC[C@H]1C	14	34
O=C(C[C@H]1CC[C@H](NS(=O)(=O)c2ccccc2)[C@@H](CO)O1)NCc1ccccc1F	12	3
COc1ccc(NC(=O)N(C)C[C@@H]2Oc3ccc(NS(=O)(=O)c4ccc(Cl)cc4)cc3CC(=O)N([C@@H](C)CO)C[C@H]2C)cc1	22	15
C[C@H]1CN([C@@H](C)CO)C(=O)c2c(c3ccccc3n2C)-c2ccccc2CO[C@H]1CN(C)Cc1ccc(Cl)c(Cl)c1	u	x
COc1cccc(-c2ccc3c(c2)[C@@H]2[C@@H](CCN2S(=O)(=O)c2ccccc2OC)[C@@H](CO)N3)c1	-10	-12
O=C(NCC[C@H]1CC[C@H](NS(=O)(=O)Cc2ccccc2)[C@@H](CO)O1)C1CCCC1	3	7
COc1ccc(-c2ccc([C@@H]3[C@H]4CN(C(=O)NC(C)C)CCCCN4[C@H]3CO)cc2)cc1	-28	-17
C[C@H](CO)N1C[C@H](C)[C@H](CN(C)C)Oc2c(NC(=O)CCCCCC(=O)Nc3ccccc3N)cccc2C1=O	29	13
C[C@H](CO)N1C[C@H](C)[C@@H](CN(C)C(=O)Nc2cccc3ccccc23)Oc2c(NC(=O)CCCCCC(=O)Nc3ccccc3N)cccc2C1=O	6	2
C[C@H](CO)N1C[C@H](C)[C@@H](CN(C)S(=O)(=O)c2ccc(F)cc2)Oc2ccc(NC(=O)Cc3ccccc3)cc2CC1=O	-23	-6
COc1ccc(NC(=O)N(C)C[C@@H]2OCCCC[C@H](C)Oc3ccc(N(C)C)cc3C(=O)N([C@H](C)CO)C[C@H]2C)cc1	-10	8
O=C(Nc1ccc(F)cc1)N1CC(=O)N2[C@@H](CO)[C@@H](c3ccc(C4=CCCC4)cc3)[C@@H]2C1	-13	-12
C[C@@H]1CN([C@H](C)CO)C(=O)Cc2cc(NC(=O)Nc3ccc(C(F)(F)F)cc3)ccc2O[C@@H]1CN(C)C(=O)Nc1ccc(C(F)(F)F)cc1	u	x
C[C@@H]1CN([C@H](C)CO)S(=O)(=O)c2ccc(C#CC(C)(C)O)cc2O[C@H]1CN(C)CC1CCCC1	3	4
Cn1cnc(S(=O)(=O)N2CC[C@H]3[C@H](CO)Nc4ccc(-c5ccccc5)cc4[C@H]32)c1	-16	-13
CN(C)CC(=O)N1CC2(C1)[C@H](c1ccccc1)[C@@H](CO)N2C(=O)C1CCCCC1	21	8
CC(=O)N(C)C[C@H]1Oc2cc(C#CC3CCCCC3)ccc2S(=O)(=O)N([C@@H](C)CO)C[C@H]1C	u	x
CN(C)C(=O)C[C@@H]1CC[C@H]2[C@H](COc3ccc(NC(=O)c4cnccn4)cc3C(=O)N2C)O1	6	7
O=C(c1cccnc1)N1C[C@H]2[C@@H](c3ccccc31)[C@@H](CO)N2C(=O)Nc1ccc(F)cc1	9	10
CCCNC(=O)N1[C@@H]2CNC[C@H]1C2c1ccc(-c2ccccc2)cc1 (stereo not given in full)	-11&-8	13&-11
C[C@@H]1CN([C@H](C)CO)C(=O)Cc2cc(NC(=O)Nc3cccc4ccccc34)ccc2O[C@H]1CN(C)Cc1ccncc1	12	8
CO[C@H]1CN(C)C(=O)c2ccc(NS(C)(=O)=O)cc2OC[C@@H](C)N(C(=O)CC2CC2)C[C@H]1C	5	2
CC(C)NC(=O)N(C)C[C@@H]1Oc2ccc(NC(=O)c3ccncc3)cc2CC(=O)N([C@H](C)CO)C[C@@H]1C	19	6
O=C(C[C@@H]1CC[C@@H]2[C@H](COC[C@H](O)CN2CC2CCOCC2)O1)NCc1ccc(Cl)cc1	16	7
CCCN1C[C@@H](C)[C@@H](OC)CN(C)C(=O)c2ccc(NC(=O)c3cnccn3)cc2OC[C@@H]1C	3	4
CCCC(=O)N1CC2(C1)CN(C(=O)C1CCC1)[C@@H](CO)c1[nH]c3cc(OC)ccc3c12	23	13
COc1ccc2c3c([nH]c2c1)[C@@H](CO)N(C(=O)C1CCCC1)CC31CN(C(=O)c2ccncc2)C1	18	8
Cc1ccc(S(=O)(=O)N(C)C[C@H]2Oc3ccc(N(C)C)cc3CC(=O)N([C@H](C)CO)C[C@@H]2C)cc1	-12	-12
COC(=O)[C@@H]1[C@@H](CO)[C@@H]2Cn3c(cccc3=O)[C@@H]2N1C(=O)C1CCC1	19	10
Cc1ccc(S(=O)(=O)N(C)C[C@@H]2OCCCC[C@H](C)Oc3ccc(NC(=O)CCC(F)(F)F)cc3C(=O)N([C@H](C)CO)C[C@@H]2C)cc1	-29	-26
C[C@H]1CN([C@@H](C)CO)C(=O)CCCn2cc(nn2)CO[C@@H]1CN(C)Cc1ccc(C(=O)O)cc1	16	13
CS(=O)(=O)N1CC(=O)N2[C@H](CO)[C@H](c3ccc(C#CCC4CCCC4)cc3)[C@H]2C1	u	x
C[C@H]1CN([C@@H](C)CO)C(=O)c2cc(NS(=O)(=O)c3cn(C)cn3)ccc2O[C@@H]1CN(C)Cc1ccncc1	9	3
COc1ccccc1C(=O)Nc1ccc2c(c1)C(=O)N(C)[C@@H]1CC[C@H](CC(=O)NCCc3ccncc3)O[C@@H]1CO2	7	13

Screening data (PubChem)
